Source: PubChem BioAssay (National Center for Advancing Translational Sciences (NCATS))
MARV entry inh – qHTS for inhibitors of binding or entry into cells for Marburg Virus. hit rate 1.8% among 300,000. Marburg virus pseudotyped entry inhibition, cell reporter; control for the full effect not named in the record; about a third of the inactives were read at about 46 µM. Potency, µM (series often up to 37.8 µM), for inactives: at the top dose activity change, negative = inhibition, usual class: inhibitors; active = well fitted inhibition curve with a large enough effect; inconclusive = small, poorly fitted or top-dose-only effect, or effect the other way; inactive = flat fitted curve, though single readings scatter; tested in HEK293 cells; about a fifth of its hits are not listed in these tables; note: % is set by controls: 0 for no effect and ±100 for the full control effect; luciferase read-out
RE007 growth inh – qHTS Assay for Inhibitors of the HIV-1 protein Vpr; S. pombe RE007 Vpr strain, BacTiter-Glo ATP luminescence, 24 h; control for the full effect not named in the record; Potency, µM (series often up to 92.2 µM), without a hit: top-dose activity change, negative = less growth; hit rate 0.21% among 360,000; active = well fitted falling curve with a large enough effect; inconclusive = small, poorly fitted or top-dose-only effect; inactive = no such curve, though single readings can be large or run the other way;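 note: % is set by controls: 0 for no effect and ±100 for the full control effect; nearly all actives have a fitted effect of over 50% in size; the assay follows cell death caused by Vpr and the record does not say whether a fall means rescue or toxicity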
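Fission yeast strain RE007, carrying one chromosomally integrated HIV-1 vpr copy, was seeded at OD 0.01 in PMG+AL medium with 23 nL pinned compound. After 24 h at 30 °C and 99% humidity, viability was read by BacTiter-Glo luminescence.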
StopGo reporter – High Throughput Screening for Foot and Mouth Disease Virus Antivirals. human cells with a luciferase reporter of 2A StopGo recoding; control for the full effect not named in the record. Potency, µM (top dose mostly 57.9 µM), without a hit: top-dose signal change, negative = less light. hit rate 1.2% among 410,000. AID 1159524, 2015; active = well fitted falling curve with a large enough effect; inconclusive = small, poorly fitted or top-dose-only effect; inactive = no such curve, though single readings can be large or run the other way; tested in HEK293T cells; note: % is set by controls: 0 for no effect and ±100 for the full control effect; nearly all actives have a fitted effect of over 45% in size; luciferase light after 4 h
NS1 function inh – qHTS Assay for Inhibitors of Influenza NS1 Protein Function; S. cerevisiae slowed by influenza A NS1, growth recovery by OD600; Potency, µM (top dose mostly 46.1 µM), inactives show top-dose activity, positive = more growth; hit rate 0.4% among 270,000; AID 2326, 2010; note: actives are rising curves; nearly all actives have a fitted effect of over 50% in size
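A cell-based growth assay was used: compounds that relieve NS1-induced slow growth of budding yeast raise OD600. Assay medium was yeast nitrogen base with ammonium sulphate and -URA supplement, pH 6.0, with 2% galactose.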
Lassa entry inh – qHTS for Inhibitors of binding or entry into cells for Lassa Virus | Lassa virus pseudotype entry inhibition, cell reporter; control for the full effect not named in the record | Potency, µM (series often up to 37.9 µM), for the others: top-dose activity change, negative = inhibition, actives largely listed as inhibitors | hit rate 1.2% among 300,000 | AID 540256, 2011; active means well fitted inhibition curve with a large enough effect; inconclusive means small, poorly fitted or top-dose-only effect, or effect the other way; inactive means flat fitted curve, though single readings scatter; tested in HEK293 cells; note: % is set by controls: 0 for no effect and ±100 for the full control effect; nearly all actives have a fitted effect of over 50% in size; luciferase read-out
Cruzain inh noDet – qHTS Assay for Promiscuous and Specific Inhibitors of Cruzain (without detergent) | purified cruzain, Z-FR-AMC fluorescence, no detergent | hit rate 2.3% among 200,000 | AID 1476, 2009 | Potency, µM, for the others: max response, negative = inhibition, most hits filed as inhibitors; active = well fitted curve in the direction sought with a large enough effect; inconclusive = small, poorly fitted or top-dose-only effect, or another doubt; inactive = no such curve, though single readings can be large; an effect the other way counts as inactive or inconclusive;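 note: plate controls were enzyme without inhibitor for no effect and buffer without enzyme for full effect; nearly all actives have a fitted effect of over 40% in size; top concentration of the series not given in the record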
Target sequence (P25779 123-467 limits assumed): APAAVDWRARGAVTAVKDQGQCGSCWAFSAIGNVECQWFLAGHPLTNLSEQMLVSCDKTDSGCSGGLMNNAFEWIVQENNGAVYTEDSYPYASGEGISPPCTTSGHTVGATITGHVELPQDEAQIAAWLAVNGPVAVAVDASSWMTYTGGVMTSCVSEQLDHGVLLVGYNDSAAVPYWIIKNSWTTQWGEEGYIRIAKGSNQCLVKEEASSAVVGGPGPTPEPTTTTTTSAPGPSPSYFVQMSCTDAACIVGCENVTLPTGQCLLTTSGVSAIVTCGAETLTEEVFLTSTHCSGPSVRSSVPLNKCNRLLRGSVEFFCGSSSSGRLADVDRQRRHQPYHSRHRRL
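Purified cruzain at 1.5 nM, pre-incubated 15 min with compound at room temperature in 100 mM sodium acetate pH 5.5, 5 mM DTT, 0.00005% Triton X-100. Reaction started with 2 uM Z-FR-AMC; AMC fluorescence increase over 60 s gives rate.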
SARS PLpro yeast – qHTS of Yeast-based Assay for SARS-CoV PLP | S. cerevisiae expressing SARS-CoV PLpro, growth rescue; control for the full effect not named in the record | Potency, µM (series often up to 32.9 µM), without a hit: at the top dose activity, positive = growth rescue | hit rate 0.19% among 330,000 | AID 485353, 2010; note: 0% is about no effect; nearly all actives have a fitted effect of over 55% in size; growth read by luminescence after 48 h
Cruzain Triton – qHTS Assay for Promiscuous and Specific Inhibitors of Cruzain (with detergent) | purified cruzain, Z-FR-AMC fluorescence, 0.01% Triton | Potency, µM, for inactives: max response, negative = inhibition, actives largely listed as inhibitors | hit rate 0.43% among 200,000 | AID 1478, 2009; active = well fitted curve in the direction sought with a large enough effect; inconclusive = small, poorly fitted or top-dose-only effect, or another doubt; inactive = no such curve, though single readings can be large; an effect the other way counts as inactive or inconclusive;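 note: plate controls were neutral wells for no effect and buffer without enzyme for full effect; nearly all actives have a fitted effect of over 40% in size; top concentration of the series not given in the record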
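In this qHTS format, compounds are incubated with 1.5 nM cruzain for 15 min at room temperature before 2 uM Z-FR-AMC is added. Release of AMC is followed at 360/450 nm, and progress is taken as the 60 s fluorescence difference.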
An asterisk follows results filed as active; ? = inconclusive; nt = no result given; & = joins results of further samples; [ ] = another dose, or the depositor's remark. Unless noted, calls come from the whole dose curve; as a rule, active means well fitted rising curve with a large enough effect; inconclusive means small, poorly fitted or top-dose-only effect; inactive means no such curve, though single readings can be large or run the other way. Potency is the fitted concentration of half-maximal effect.

SMILES	MARV entry inh	RE007 growth inh	StopGo reporter	NS1 function inh	Lassa entry inh	Cruzain inh noDet	SARS PLpro yeast	Cruzain Triton
CCCOC(=O)c1ccc(NC(=O)c2cc(=O)[nH]c3ccccc23)cc1	nt	0.1%	9.0%	-2.7%	nt	nt	-0.7%	nt
O=C(c1ccc2nccnc2c1)N1CCCC(N2CCN(c3ccc(F)cc3)CC2)C1 (stereo unspecified)	20.9%[46.1 µM]	-8.3%	18.0%	-0.4%	-2.8%[46.1 µM]	nt	5.6%	nt
Cc1[nH]c2ccccc2c1C(c1ccccn1)c1c(C)[nH]c2ccccc12	3.3%	4.7%	-20.5%	-9.0%	13.7%	6.2%	-4.1%	-3.3%
Cc1cc(O)c(/C=N/Nc2ccc(Cl)cc2)c(=O)o1	18.3%	100.3%	-1.9%	-102.4%	-10.0%	?	-9.7%	2.1%
CCc1nc(SCc2cc(=O)c3cc(F)ccc3[nH]2)n[nH]1	nt	nt	-6.9%	nt	3.2%[46.1 µM]	-4.2%	nt	-1.4%
COc1ccc(NC(=O)CSc2nnnn2C)cc1	-1.5%[46.1 µM]	-3.2%	9.9%	9.0%	-5.4%	nt	0.6%	nt
CC(C)[C@H](NC(=O)[C@H](Cc1ccccc1)n1c(=O)[nH]c2ccccc2c1=O)C(=O)N[C@@H](Cc1ccccc1)C(=O)O	nt	0.9%	-16.2%	?	nt	nt	1.6%	nt
CNC(=O)c1ccsc1NC(=O)c1ccc(Cl)s1	nt	-6.2%	-3.7%	-30.0%	nt	-8.9%	-20.3%	-3.3%
Cc1cccc(NC(=O)c2cc(NC(=O)C3CCCCC3C(=O)O)ccc2N2CCCCC2)c1 (stereo unspecified)	10.9%	-5.9%	-9.2%	22.8%	1.2%	?	6.3%	-15.3%
CSC1=C(C#N)C(c2ccc(C)cc2)C2=C(CCCC2=O)N1 (stereo unspecified)	-0.2%	-1.6%	-4.1%	-12.1%	?	-3.5%	13.7%	0.3%
CCc1cccc(C)c1Nc1nc2ccccc2n2cnnc12	-22.7%	2.5%	-12.4%	0.0%	?	nt	1.2%	nt
Cc1ccc(/C=N/NC(=O)CSc2nc3ccccc3c(=O)n2-c2ccccc2C)s1	?	-10.6%	-7.9%	4.1%	?	-18.2%	13.9%	-6.3%
Cc1ccnc(NC(=O)c2ccc(Cl)c([N+](=O)[O-])c2)c1	0.0%[46.1 µM]	-14.4%	18.5%	nt	13.8%	nt	-0.2%	nt
CCC(NS(=O)(=O)c1ccc(C)cc1)C(=O)N1CCN(c2ccccn2)CC1 (stereo unspecified)	nt	-4.8%	2.3%	5.2%	nt	-12.7%	-8.0%	2.9%
CCN(CC)C1CCN(C(=O)CCc2nnc(CCCCc3ccccc3)o2)C1 (stereo unspecified)	39.6%[46.1 µM]	-5.6%	2.3%	-1.1%	12.0%	nt	0.0%	nt
CCN(CC(=O)Nc1ccc2c(c1)OCCO2)Cc1cc(=O)n2ccsc2n1	-1.0%[46.1 µM]	-5.8%	12.7%	nt	11.7%	nt	-1.5%	nt
COC(=O)c1ccccc1C(=O)N1CCCC(CCC(=O)NCc2ccc(F)c(F)c2)C1 (stereo unspecified)	?	11.1%	3.7%	0.1%	-4.8%[46.1 µM]	nt	-0.2%	nt
CC(=O)N1CCc2cc(S(=O)(=O)NCCC(=O)NCCc3ccccc3)ccc21	13.9%[46.1 µM]	8.3%	?	-4.8%	-14.9%	-0.9%	1.3%	5.1%
Cc1ccccc1C(=O)NC1CCN(CC(=O)NCc2ccc(F)cc2)CC1	-21.4%[46.1 µM]	4.2%	-11.9%	nt	-29.1%[46.1 µM]	nt	0.5%	nt
Cn1c(SCC(=O)N2CCN(c3ccccc3)CC2)nnc1-c1ccco1	-11.5%	1.3%	?	-7.5%	?	0.8%	6.7%	3.8%
CN(CCCNS(=O)(=O)c1cccc2cccnc12)Cc1ccccc1	nt	-8.8%	-10.0%	11.9%	nt	-19.2%	-1.3%	-1.3%
COc1ccc(/C=C/CN2CCC(n3nccc3NC(=O)C3CC3)CC2)cc1	nt	2.4%	8.9%	?	nt	nt	11.8%	nt
O=C(O)CN(c1ccc2c(c1)OCCO2)S(=O)(=O)c1ccccc1	13.3%	21.8%	-1.4%	-1.6%	15.8%	-10.8%	4.3%	3.0%
COc1cccc(/C=C/C(=O)Nc2ccc3[nH]c(=O)[nH]c3c2)c1	nt	10.8%	-11.9%	5.6%	nt	nt	0.4%	nt
O=C(NCCN1CCOCC1)c1cc(Sc2ccc(F)cc2F)nc2ccccc12	-1.6%[46.1 µM]	-25.2%	?	nt	?	nt	-4.3%	nt
O=C(NCCCN1CCN(c2ccccc2F)CC1)c1ccc2nc(Cc3ccccc3)oc2c1	nt	nt	?	nt	-20.4%[46.1 µM]	3.1%	nt	-3.4%
Cc1ccc(/C=C(\C#N)C(=O)Nc2ccccn2)o1	?	-17.7%	24.5%	-11.6%	?	nt	-2.8%	nt
CC(C)Cc1nc2n[nH]c(N)c2c2c1CCC2	-16.2%&-16.2%	12.0%	-15.5%	1.2%	9.4%	8.6%	2.4%	0.6%
CCOc1ccc(N(C(C)C(=O)NCc2ccco2)S(C)(=O)=O)cc1 (stereo unspecified)	-1.5%	0.4%	nt	-1.3%	-0.5%	-2.0%	1.2%	-9.4%
COc1ccc(-c2c(C(F)(F)F)oc3c(CN4CCN(C)CC4)c(O)ccc3c2=O)cc1	-19.0%&-19.0%	-3.2%	-17.0%	-4.0%	-20.9%	-6.1%	2.1%	-0.6%
C/C(=N\NC(=O)c1ccc(NS(=O)(=O)c2cccs2)cc1)c1ccc(O)cc1O	-17.7%[46.1 µM]	11.9%	-3.9%	4.8%	?	nt	17.8%	nt
CCc1cccc(NC(=O)CN2C(=O)COc3ccc(S(=O)(=O)N4CCC(C)CC4)cc32)c1	nt	nt	-15.7%	nt	-11.2%[46.1 µM]	13.8%	nt	0.4%
Cc1cccc(C(=O)Nc2nnc(S(=O)(=O)N3CCCc4ccccc43)s2)c1	nt	nt	-23.5%	nt	-0.1%[46.1 µM]	-4.0%	nt	-1.7%
CC(=O)c1c(C)[nH]c(C(=O)NC2=NCCS2)c1C	8.4%	-8.4%	59.9%[activator]	-5.3%	13.9%	3.8%	1.8%	-4.5%
CC(NC(=O)c1c(F)cccc1Cl)c1ccc(-n2ccnc2)cc1 (stereo unspecified)	nt	-9.9%	-25.4%	-3.7%	nt	nt	-2.2%	nt
OCC1(CCOc2ccccc2)CCN(Cc2cccn2-c2ncccn2)CC1	?	4.8%	6.1%	0.9%	9.6%[46.1 µM]	nt	-0.3%	nt
Cc1ccc(C)c(N(C)C(=O)c2cc3c(s2)-c2ccccc2OC3)c1	28.6%[46.1 µM]	nt	-18.7%	nt	nt	13.6%	nt	8.0%
O=C(C1CCN(S(=O)(=O)c2ccc(F)cc2)CC1)N1CCOCC1	10.0%	-8.0%	11.3%	?	-14.4%	0.4%	5.2%	5.1%
COc1cccc(-n2c(SCC(=O)Nc3nc4ccccc4s3)nc3ccccc3c2=O)c1	-9.7%[46.1 µM]	12.9%	-7.1%	-3.7%	-4.1%	nt	0.6%	nt
O=C(CNC(=O)c1ccc(-c2ccccc2)cc1)OCc1c(Cl)cccc1Cl	14.9%	-2.5%	0.0%	9.5%	13.9%	-18.1%	-0.5%	-0.4%
N#Cc1ccc(C(=O)Nn2cnnc2)cc1	nt	4.1%	-11.1%	6.8%	nt	nt	1.1%	nt
O=C(O)CCC(=O)NNC(=O)COc1ccc(Cl)cc1Cl	-10.9%[46.1 µM]	10.2%	9.6%	5.0%	0.4%	nt	0.5%	nt
COc1cc(NCCCCCCCN)c2ncccc2c1	16.1%	43.9%	-13.5%	15.1%	-4.1%	15.8µM*	8.3%	-8.5%
Cn1c(O)c(C(=Nc2ccc(F)cc2)c2ccccc2Cl)c(=O)n(C)c1=O	-22.2%	-2.9%	?	1.6%	?	nt	1.2%	nt
COc1ccc(NC2=C(C(C)=O)C(c3ccc4c(c3)OCO4)C(C(C)=O)C(C)(O)C2)cc1 (stereo unspecified)	21.6%	-13.2%	20.9%	-11.1%	-21.8%	9.4%	-4.0%	-7.1%
CC(C)(C)OC(=O)NCC(=O)Oc1cc2oc(=O)cc(-c3ccccc3)c2cc1Cl	1.8%	nt	-20.1%	-22.7%	6.8%	9.6%	?	-14.1%
Cc1ccc(NC(=O)CC(=O)Nc2ccc(C)c(C)c2)cc1C	-4.4%[46.1 µM]	-7.0%	-1.6%	-7.2%	5.8%	nt	9.0%	nt
O=C(CNC(=O)c1ccco1)NCC(=O)OCc1c(F)cccc1Cl	?	6.5%	?	18.4%	0.6%	nt	6.2%	nt
CCN(CC)CC(O)COc1ccc2c(c1)c(C(C)=O)c(C)n2-c1ccccc1 (stereo unspecified)	?	12.6%	-8.3%	2.3%	?	8.0%	23.8%	-0.1%
Cc1cc(C)cc(CC2CC(=O)N(c3nc(C)cc(C)n3)C2=O)c1 (stereo unspecified)	-0.4%	5.2%	-3.4%	-14.8%	-10.5%	-3.9%	-1.5%	3.7%
CC(C)COCC1CC2(CC(C)C(=O)CC2=O)C(=O)O1 (stereo unspecified)	?	-16.2%	7.2%	5.2%	2.3%	9.5%	4.2%	1.3%
COc1cccc(CNC(=O)c2c(C)nn(-c3ccccc3)c2C)c1	0.8%[46.1 µM]	17.1%	-5.3%	-15.7%	0.3%	nt	-2.3%	nt
Cc1ccc(N)c2c1OCCC2=O	15.2%	-2.8%	-14.8%	5.3%	4.7%	-12.3%	-7.7%	0.8%
COc1ccc(-c2nc(CNC(=O)NC3CCCCC3)c(C)o2)cc1	nt	nt	-14.3%	nt	2.8%[46.1 µM]	-0.8%	nt	4.2%
